KCNQ2 block – KCNQ2 potassium channel inhibitors, primary screen, cell-based, CHO-K1, FluxOR thallium flux, B-score (AID 2156). Potassium voltage-gated channel subfamily KQT member 2 (Rattus norvegicus), O88943. 20 min; hits give low values; only compounds with negative scores are shown here; some inactives read as strong as hits. B-score at 10 µM. hit rate 1.1% among 310,000;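 active means fluorescence ratio B-score at most minus 3 library SDs, with starting brightness B-score within 2 library SDs, cut at about -5.5 in these data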
Target sequence (O88943 whole entry, looked up): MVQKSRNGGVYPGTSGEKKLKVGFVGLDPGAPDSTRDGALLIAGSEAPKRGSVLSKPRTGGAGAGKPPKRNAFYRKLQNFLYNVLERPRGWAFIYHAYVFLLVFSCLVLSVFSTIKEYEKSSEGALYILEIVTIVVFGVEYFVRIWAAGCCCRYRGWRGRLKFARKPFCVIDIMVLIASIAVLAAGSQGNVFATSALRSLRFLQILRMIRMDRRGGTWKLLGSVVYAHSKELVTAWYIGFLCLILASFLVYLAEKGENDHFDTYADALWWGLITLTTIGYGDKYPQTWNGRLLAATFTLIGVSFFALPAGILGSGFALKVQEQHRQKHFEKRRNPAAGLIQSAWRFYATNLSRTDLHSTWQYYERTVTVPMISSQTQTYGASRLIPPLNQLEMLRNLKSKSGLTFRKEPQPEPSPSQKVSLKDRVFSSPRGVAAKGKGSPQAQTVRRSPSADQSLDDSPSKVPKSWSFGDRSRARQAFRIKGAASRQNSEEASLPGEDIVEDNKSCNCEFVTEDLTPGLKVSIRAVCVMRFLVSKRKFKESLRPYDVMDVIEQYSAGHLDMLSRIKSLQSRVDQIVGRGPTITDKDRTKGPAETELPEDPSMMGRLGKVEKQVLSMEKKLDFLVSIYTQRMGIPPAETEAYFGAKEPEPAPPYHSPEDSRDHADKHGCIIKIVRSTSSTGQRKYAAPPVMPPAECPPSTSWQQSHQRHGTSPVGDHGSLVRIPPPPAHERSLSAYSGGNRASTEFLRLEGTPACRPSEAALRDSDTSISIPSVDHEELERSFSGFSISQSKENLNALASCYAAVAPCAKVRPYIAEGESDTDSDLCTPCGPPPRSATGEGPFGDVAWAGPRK
KCNQ2 block baseline – recorded beside KCNQ2 block, whose call it bears; B-score; measured here: initial fluorescence intensity artifact check;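 brightness before thallium and not channel activity; 0 = typical well and far values either way flag optical interference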
Numbers without * were called inactive. Not all compounds are listed; the hit share may differ from the screen's.

CCN(CC)S(=O)(=O)c1ccc(N2CCOCC2)c(NC(=O)Cc2ccccc2)c1 was read as KCNQ2 block inactive and KCNQ2 block baseline 0.19.
Screening O=C(O)CSc1nnc(-c2ccccc2)c(-c2ccccc2)n1 returned KCNQ2 block inactive and KCNQ2 block baseline 2.
Screening O=S(=O)(c1ccc(F)c(F)c1)N1CCN(Cc2ccc3c(c2)OCO3)CC1 returned KCNQ2 block inactive and KCNQ2 block baseline 0.97.
For N#Cc1cccc(NC(=O)CN2C(=O)NC(Cc3ccccc3)C2=O)c1 (configuration not stated) the results were KCNQ2 block inactive and KCNQ2 block baseline -0.5.
For CCN(CC)C(=O)c1oc2ccc(S(=O)(=O)N3CC(C)CC(C)C3)cc2c1C (configuration not stated) the results were KCNQ2 block inactive and KCNQ2 block baseline 2.7.
Screening COc1cccc(/C=C/C(=O)OCC(=O)c2ccc3c(c2)NC(=O)CO3)c1OC returned KCNQ2 block inactive and KCNQ2 block baseline 0.48.
CCN1CCCC1CNC(=O)c1c(O)c2c([nH]c1=O)CCCC2 (configuration not stated) was read as KCNQ2 block inactive and KCNQ2 block baseline 0.37.
O=C(Cc1ccon1)c1ccc(O)cc1O was read as KCNQ2 block inactive and KCNQ2 block baseline 0.05.
Screening O=C(CN1C(=O)c2ccccc2C1=O)NCc1ccc(C(=O)O)cc1 returned KCNQ2 block inactive and KCNQ2 block baseline 0.58.
For Oc1ccccc1-c1nc(NCc2ccccc2)c2ccccc2n1 the results were KCNQ2 block inactive and KCNQ2 block baseline -2.
Screening Cc1ccc(NC(=O)CSc2nnc(CNC(=O)c3ccco3)n2C)cc1 returned KCNQ2 block inactive and KCNQ2 block baseline 2.
For O=C(CCNC(=O)c1ccc(Br)cc1)NCCCSc1ccccc1 the results were KCNQ2 block inactive and KCNQ2 block baseline -0.47.

Looked up one by one from the list above (5):
CCN(CC)S(=O)(=O)c1ccc(N2CCOCC2)c(NC(=O)Cc2ccccc2)c1 was read as KCNQ2 block inactive and KCNQ2 block baseline 0.19.
For Oc1ccccc1-c1nc(NCc2ccccc2)c2ccccc2n1 the results were KCNQ2 block inactive and KCNQ2 block baseline -2.
Screening O=C(O)CSc1nnc(-c2ccccc2)c(-c2ccccc2)n1 returned KCNQ2 block inactive and KCNQ2 block baseline 2.
Screening O=C(CN1C(=O)c2ccccc2C1=O)NCc1ccc(C(=O)O)cc1 returned KCNQ2 block inactive and KCNQ2 block baseline 0.58.
CCN1CCCC1CNC(=O)c1c(O)c2c([nH]c1=O)CCCC2 (configuration not stated) was read as KCNQ2 block inactive and KCNQ2 block baseline 0.37.

Remaining list, next part:
COc1cc(NC(=O)COC(=O)c2ccc(C)c(S(=O)(=O)N3CCCCC3)c2)c(C)cc1[N+](=O)[O-] was read as KCNQ2 block inactive and KCNQ2 block baseline -0.79.
`Cc1ccc2oc(=O)cc(CN3CCN(Cc4ccccc4)CC3)c2c1` gave KCNQ2 block inactive and KCNQ2 block baseline 0.02.
`O=C(CN1CCCC1)N1CCCc2c1c(=O)oc1ccc(OCc3ccccc3)cc21` gave KCNQ2 block inactive and KCNQ2 block baseline -2.3.
O=C(NCCN1CCCC1)C1CCN(S(=O)(=O)N2CCC3(CC2)OCCO3)CC1 was read as KCNQ2 block inactive and KCNQ2 block baseline 0.02.
Screening COc1nc(N/N=C/c2cc3c(cc2Br)OCO3)nc(N2CCOCC2)n1 returned KCNQ2 block inactive and KCNQ2 block baseline 0.06.
`CC(C)NC(=O)CSc1nc2ccccc2n1-c1ccccc1` gave KCNQ2 block inactive and KCNQ2 block baseline -1.3.
COc1ccc(CCCc2nnc(SCc3nc4ccccc4c(=O)[nH]3)n2C)cc1C was read as KCNQ2 block inactive and KCNQ2 block baseline 0.09.
`O=C(CSc1nnc(-c2ccco2)n1Cc1ccccc1)OC1CCCCC1` gave KCNQ2 block -9.4* and KCNQ2 block baseline 0.11*.
For CCn1c(=O)n(CC)c2cc(S(=O)(=O)N3CCc4ccccc43)ccc21 the results were KCNQ2 block inactive and KCNQ2 block baseline -0.11.
COc1ccccc1/C=C/c1nc2ccccc2c(=O)o1 was read as KCNQ2 block inactive and KCNQ2 block baseline 1.7.
For Cc1ccc(C(=O)COC(=O)CNC(=O)COc2ccccc2C)cc1C the results were KCNQ2 block inactive and KCNQ2 block baseline -0.2.
CCCCCCCCC1=NCCc2c1[nH]c1ccccc21 was read as KCNQ2 block inactive and KCNQ2 block baseline -1.4.

Brought forward from above: 5 entries, followed by the next part.
`O=C(CSc1nnc(-c2ccco2)n1Cc1ccccc1)OC1CCCCC1` gave KCNQ2 block -9.4* and KCNQ2 block baseline 0.11*.
For CCn1c(=O)n(CC)c2cc(S(=O)(=O)N3CCc4ccccc43)ccc21 the results were KCNQ2 block inactive and KCNQ2 block baseline -0.11.
COc1ccccc1/C=C/c1nc2ccccc2c(=O)o1 was read as KCNQ2 block inactive and KCNQ2 block baseline 1.7.
For Cc1ccc(C(=O)COC(=O)CNC(=O)COc2ccccc2C)cc1C the results were KCNQ2 block inactive and KCNQ2 block baseline -0.2.
CCCCCCCCC1=NCCc2c1[nH]c1ccccc21 was read as KCNQ2 block inactive and KCNQ2 block baseline -1.4.
COc1cc(=O)n2c(n1)SCCC2 was read as KCNQ2 block inactive and KCNQ2 block baseline 0.11.
For COC(=O)Cn1c2ccc(C)cc2c2nc(C)sc21 the results were KCNQ2 block inactive and KCNQ2 block baseline -0.04.
`CSc1nc(-c2ccccc2)nc(N2CCN(C)CC2)c1C(C)=O` gave KCNQ2 block inactive and KCNQ2 block baseline -0.01.
Screening Cc1cc(C)nc(SCCCNCc2c(F)cccc2Cl)n1 returned KCNQ2 block inactive and KCNQ2 block baseline 1.4.
CCCN1C(=O)/C(=C\C=C2\N(CC)c3ccccc3C2(C)C)SC1=S was read as KCNQ2 block inactive and KCNQ2 block baseline 4.
Screening CCOc1ccc(NS(=O)(=O)c2ccc(NS(C)(=O)=O)cc2)cc1 returned KCNQ2 block inactive and KCNQ2 block baseline 0.07.
`O=[N+]([O-])c1ccc2nc(C(O)C(O)c3nc4ccc([N+](=O)[O-])cc4[nH]3)[nH]c2c1` (configuration not stated) gave KCNQ2 block inactive and KCNQ2 block baseline -0.39.
`Cc1cccc(-c2nnc(SCC#N)n2-c2ccccc2)c1` gave KCNQ2 block inactive and KCNQ2 block baseline 2.1.
`C=CCc1c(C)nc(C)nc1N/N=C/c1ccccc1O` gave KCNQ2 block inactive and KCNQ2 block baseline -1.8.
For O=S1(=O)N=C(N/N=C/C=C/c2ccccc2)c2ccccc21 the results were KCNQ2 block inactive and KCNQ2 block baseline -1.1.
For O=C(c1ccc2c(c1)OCCO2)N1CCCCC1 the results were KCNQ2 block inactive and KCNQ2 block baseline 0.58.
Screening COc1ccc2c(c1OC)C(=O)N1C2SC(C)(C)[C@H]1C(=O)NCCCOC(C)C (some centres not stated) returned KCNQ2 block inactive and KCNQ2 block baseline -0.07.
For Cc1ccc(C(=O)Oc2ccc(C(=O)COC(=O)c3cnccn3)cc2)cc1 the results were KCNQ2 block inactive and KCNQ2 block baseline 0.09.
O=C(NCc1ccco1)c1cccc(C(F)(F)F)c1 was read as KCNQ2 block inactive and KCNQ2 block baseline 0.36.
Screening CCc1noc(C)c1C(=O)NC1CCCc2c1cnn2-c1cc(C)cc(C)c1 (configuration not stated) returned KCNQ2 block inactive and KCNQ2 block baseline 1.5.
NC(=O)c1nn(-c2ccccc2)nc1NC(=O)CSc1nnnn1-c1ccc(Cl)cc1 was read as KCNQ2 block inactive and KCNQ2 block baseline 2.
O=C(/C=C/c1cccc([N+](=O)[O-])c1)NC1CC2CCC1C2 (configuration not stated) was read as KCNQ2 block inactive and KCNQ2 block baseline -0.87.
Screening CC(C)(C)c1ccccc1OCCOCCSc1ncccn1 returned KCNQ2 block inactive and KCNQ2 block baseline -1.4.
Screening CCOC(=O)c1ccc(NC(=S)N2CCCC2c2ccc(OC)c(OC)c2)cc1 (configuration not stated) returned KCNQ2 block inactive and KCNQ2 block baseline -0.03.
O=C(NCc1ccc2c3c(cccc13)C(=O)N2)c1cccs1 was read as KCNQ2 block inactive and KCNQ2 block baseline -0.44.
Screening CCC(C)NC(=O)c1ccc(C)c(NC(=O)C2=C(C)OCCS2)c1 (configuration not stated) returned KCNQ2 block inactive and KCNQ2 block baseline 1.7.
For Cc1nc2ccccc2c2c1CC(C)S2 (configuration not stated) the results were KCNQ2 block inactive and KCNQ2 block baseline 0.31.
`CCN(CC)c1ccc(C2Nc3cccc4cccc(c34)N2)cc1` gave KCNQ2 block inactive and KCNQ2 block baseline -1.2.
For CCCCn1c(/C=N/Nc2nc3ccccc3[nH]2)nc2ccccc21 the results were KCNQ2 block inactive and KCNQ2 block baseline -0.04.
For COc1ccc(CN2CCN(c3ccccn3)CC2)cc1OCc1ccccc1 the results were KCNQ2 block inactive and KCNQ2 block baseline 0.52.
`Cc1ccccc1OCCCSc1nc2ccccc2[nH]1` gave KCNQ2 block inactive and KCNQ2 block baseline -1.4.
Screening Cc1nn(Cc2c(F)cccc2Cl)c(C)c1[N+](=O)[O-] returned KCNQ2 block inactive and KCNQ2 block baseline 1.8.
Screening COc1ccc(CN2CCN(S(=O)(=O)c3ccc(C)cc3)CC2)cc1Br returned KCNQ2 block inactive and KCNQ2 block baseline -1.
For O=C(Nc1ccc(S(=O)(=O)N2CCCC2)cc1)C1CC(=O)N(c2ccc(F)cc2)C1 (configuration not stated) the results were KCNQ2 block inactive and KCNQ2 block baseline 1.8.
`O=C(Nc1nnc(-c2ccc(Cl)cc2)o1)NC1CCCCC1` gave KCNQ2 block inactive and KCNQ2 block baseline -0.3.
CC(c1ccco1)N(C(=O)c1ccccc1NS(=O)(=O)c1ccc(Cl)c([N+](=O)[O-])c1)c1ccccn1 (configuration not stated) was read as KCNQ2 block inactive and KCNQ2 block baseline -0.53.
`O=C(COC(=O)/C=C/c1cccs1)NC1CCCCC1` gave KCNQ2 block inactive and KCNQ2 block baseline 0.19.
Screening O=[N+]([O-])c1ccccc1-c1ccc(C(=S)N2CCCCC2)o1 returned KCNQ2 block inactive and KCNQ2 block baseline 1.2.
For COc1ccc(N(CN2C(=O)C3CCCCC3C2=O)C(=O)c2ccco2)cc1 (configuration not stated) the results were KCNQ2 block inactive and KCNQ2 block baseline 1.7.
CC1CN(S(=O)(=O)c2cccc(C(=O)NN3CCN(C)CC3)c2)CC(C)O1 (configuration not stated) was read as KCNQ2 block inactive and KCNQ2 block baseline 0.73.
`COc1ccc(N2CCN(C(c3cc4ccc(C)cc4[nH]c3=O)c3nnnn3C3CCCC3)CC2)cc1` (configuration not stated) gave KCNQ2 block inactive and KCNQ2 block baseline -0.73.
`CCc1cc(=O)oc2cc(OCC(=O)N3CCC(C(=O)O)CC3)ccc12` gave KCNQ2 block inactive and KCNQ2 block baseline 2.
O=C(CCl)Nc1c(C(=O)Nc2ccc3c(c2)OCCO3)oc2ccccc12 was read as KCNQ2 block inactive and KCNQ2 block baseline 0.55.
Screening O=C(Cc1cccs1)NCc1cccc(CNC(=O)Cc2cccs2)c1 returned KCNQ2 block inactive and KCNQ2 block baseline 0.45.
`CCOc1ccc(C(=O)c2cccs2)cc1` gave KCNQ2 block inactive and KCNQ2 block baseline 0.72.
Screening CC1CCCC(C)N1C(=O)COc1ccc(-c2nnco2)cc1 (configuration not stated) returned KCNQ2 block inactive and KCNQ2 block baseline 0.84.
`OCCC1CN(Cc2ccn[nH]2)CCN1Cc1ccc(F)c(F)c1` (configuration not stated) gave KCNQ2 block inactive and KCNQ2 block baseline -0.01.
`Nc1ncnc(NNC(=O)CNC(=O)c2c(F)cccc2Cl)c1[N+](=O)[O-]` gave KCNQ2 block inactive and KCNQ2 block baseline 0.02.
For CCOc1ccc(S(=O)(=O)Nc2ccccc2C(=O)N2CCOCC2)cc1 the results were KCNQ2 block inactive and KCNQ2 block baseline 0.44.
Screening CC1(C)C(=O)Nc2ccccc2N1C(=O)COC(=O)Cc1c(F)cccc1Cl returned KCNQ2 block inactive and KCNQ2 block baseline 0.26.
CNC(=S)N1CCc2cc(OC)c(OC)cc2C1 was read as KCNQ2 block inactive and KCNQ2 block baseline 0.85.
`CCn1c(=O)c2cc(C(=O)N(C)c3ccc(OC)cc3OC)sc2c2ccccc21` gave KCNQ2 block inactive and KCNQ2 block baseline -1.1.
`CCOc1ccccc1NC(=O)C1CCN(S(=O)(=O)c2cccc3cccnc23)CC1` gave KCNQ2 block inactive and KCNQ2 block baseline 0.44.
`COc1ccc(CN(CC2CCCO2)C(=O)CN2C(=O)C(C)Oc3ccc(C)cc32)cc1OC` (configuration not stated) gave KCNQ2 block inactive and KCNQ2 block baseline -0.3.
Screening COc1cc(S(=O)(=O)N2CCN(C)CC2)c(OC)cc1Br returned KCNQ2 block inactive and KCNQ2 block baseline 0.14.
`Cc1noc(C)c1C(=O)Nc1sc2c(c1C(N)=O)CCC2` gave KCNQ2 block inactive and KCNQ2 block baseline 0.05.
Cc1cnc(NC(=O)Cc2c[nH]c3ccccc23)s1 was read as KCNQ2 block inactive and KCNQ2 block baseline 2.6.
CC(=O)NC(NC(C)=O)c1ccc(N(C)C)cc1 was read as KCNQ2 block inactive and KCNQ2 block baseline 0.1.
For O=C(CN1CCN(c2ccc(F)cc2)CC1)NCc1cccs1 the results were KCNQ2 block inactive and KCNQ2 block baseline 1.9.
`O=C(NC(=S)Nc1ccc(S(=O)(=O)N2CCCC2)cc1)C1CCC1` gave KCNQ2 block inactive and KCNQ2 block baseline 1.1.
For CCOC(=O)c1sc(N(Cc2ccccc2)C(=O)CSc2ncn[nH]2)nc1C the results were KCNQ2 block inactive and KCNQ2 block baseline 0.89.
`Cc1cc(NC(=O)c2cc(-c3ccc(C)s3)nc3ccccc23)no1` gave KCNQ2 block inactive and KCNQ2 block baseline -0.63.
`O=C(c1cc(-c2ccc(Br)cc2)n[nH]1)N1CCN(C(=O)c2ccccc2Br)CC1` gave KCNQ2 block inactive and KCNQ2 block baseline 3.

Screening data from PubChem BioAssay.
